MgrA DNA FP = S. aureus MgrA activity modulators, primary screen, biochemical, S. aureus Newman, fluorescence polarization | MgrA-DNA binding | inhibition, %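 (about 10 µg/mL by stock and volumes)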 | hit rate 0.13% among 84,000 | AID 602314, 2012;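 active = above 50% in either of two replicates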;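 also: 0% = protein plus DNA without compound and 100% = DNA alone without protein; higher means less MgrA bound to DNA so lower polarization; one replicate is shown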
Sa helicase inh = inhibitors of S. aureus replicative helicase, primary screen, biochemical, fluorescence unwinding readout. purified S. aureus helicase, fluorescence unwinding assay; about half of the hits fall short of the stated cut. AID 485395, 2010. replicative DNA helicase (DnaC/DnaB), Staphylococcus aureus. inhibition, %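 (tested at about 80 µM)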. hit rate 0.05% among 120,000;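 active = both duplicates at 50% or more, or one of them with a favoured structure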;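 also: 0% = mean of negative control wells and 100% = mean of positive control wells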
An asterisk follows results filed as active; . = no result given. Not all compounds are listed (hit frequency here may not be typical).

SMILES | MgrA DNA FP | Sa helicase inh
CCCn1c(=O)n(Cc2ccc(C#N)cc2)c2ccccc21 | . | -7
Cc1c(N(C)S(C)(=O)=O)c(=O)n(-c2ccccc2)n1C | -2.4 | 14
O=C(O)CCCC(=O)Nc1ccccc1-n1ccnc1 | -4.3 | 8
O=C(/C=C/c1ccco1)Nc1sc2c(c1C(=O)O)CCCCC2 | . | 14
CSc1nc2ccc(NC(=O)c3ccc(Cl)s3)cc2s1 | . | 6
CCOC(=O)c1c(C)[nH]c(C)c1S(=O)(=O)NCc1ccccc1C | . | 0
CCOC(=O)c1sc(SCCS(=O)(=O)c2ccccc2)c2c1CC(C)(C)CC2=O | -2.5 | .
O=C1COCC(=O)N1c1ccc2c(c1)OCO2 | -1.5 | .
CC(=O)Oc1ccc(N(C(C)=O)S(=O)(=O)c2ccc(Cl)cc2)cc1 | 1.1 | 3
Cn1cc(Cl)c(C(=O)N2CCc3ccccc3C2)n1 | 0.4 | 3
C[C@@H]1CCC2[C@](C)(CO)[C@@H](O)CC[C@]2(C)[C@@]12CCC(CO)(CCO)O2 (stereo partly specified) | . | 4
CCN(Cc1ccncc1)C(=O)c1csc2ccccc12 | 1.6 | 7
Cc1ccccc1OCC(O)CN(C)C (stereo unspecified) | . | -7
O=C(O)c1ccc2c(c1)C1C=CCC1C(c1ccc(Br)cc1)N2 (stereo unspecified) | . | 22
NC(=Nc1ccc(Cl)c(Cl)c1)c1ccccc1 | 0.8 | .
Cc1ccc(C(C)C)c(OCc2nnc3c4cnn(Cc5ccccc5)c4ncn23)c1 | . | 4
O=S(=O)(NCCSCc1ccco1)c1cc(S(=O)(=O)c2ccccc2)cs1 | 0.3 | .
Cc1cc(=O)n(CCc2ccccc2)c(O)c1C#N | 0.8 | -14
CC1CC(C)CN(C(=O)COC(=O)c2ccc(C#N)cc2)C1 (stereo unspecified) | . | 8
O=C(NC1CC1)c1ccccc1I | -0.1 | 3
CC(C)(C)S(=O)(=O)c1cnc(-c2ccc(Cl)cc2)nc1N | . | 23
NC(=O)CCNc1cc(C(F)(F)F)cc(C(F)(F)F)c1 | 3.0 | .
CCCCc1c(C(=O)O)cccc1C(=O)O | 0.1 | -10
CCOC(=O)COc1c(/C=C2\SC(=S)N(Cc3ccco3)C2=O)cccc1OC | 9.7 | -13
CCOc1ccc(CCNC(=O)C2CCN(c3nc(-c4ccc(OC)cc4)no3)CC2)cc1 | . | -18

Seven entries drawn at random from those above, as already listed:
SMILES | MgrA DNA FP | Sa helicase inh
CCCn1c(=O)n(Cc2ccc(C#N)cc2)c2ccccc21 | . | -7
NC(=O)CCNc1cc(C(F)(F)F)cc(C(F)(F)F)c1 | 3.0 | .
CCOc1ccc(CCNC(=O)C2CCN(c3nc(-c4ccc(OC)cc4)no3)CC2)cc1 | . | -18
CC1CC(C)CN(C(=O)COC(=O)c2ccc(C#N)cc2)C1 (stereo unspecified) | . | 8
CCOC(=O)COc1c(/C=C2\SC(=S)N(Cc3ccco3)C2=O)cccc1OC | 9.7 | -13
CCOC(=O)c1c(C)[nH]c(C)c1S(=O)(=O)NCc1ccccc1C | . | 0
O=C1COCC(=O)N1c1ccc2c(c1)OCO2 | -1.5 | .

By substructure, the entries above with a cyano group.
SMILES | MgrA DNA FP | Sa helicase inh
CCCn1c(=O)n(Cc2ccc(C#N)cc2)c2ccccc21 | . | -7
Cc1cc(=O)n(CCc2ccccc2)c(O)c1C#N | 0.8 | -14
CC1CC(C)CN(C(=O)COC(=O)c2ccc(C#N)cc2)C1 (stereo unspecified) | . | 8

Further records follow.
SMILES | MgrA DNA FP | Sa helicase inh
CCc1ccccc1-n1c(SCC(=O)N2CCCC2)nc2[nH]ncc2c1=O | -0.9 | 5
Cc1ccccc1NC(=O)c1ccc2nc(N3CCC(C)CC3)sc2c1 | -1.3 | 9
CCCCC/C=C\CC(O)/C=C/c1cccc(CC(O)CCCCO)n1 (stereo unspecified) | -0.8 | .
CCC(C)NC(=O)CSc1ncc(C#N)c(N)n1 (stereo unspecified) | 2.6 | -14
c1ccc(Cn2cc(CN3CCN(c4ccccc4)CC3)c3ccccc32)cc1 | 1.2 | -10
CC1CCC(NC(=O)CCC(=O)Nc2nc(-c3cc4ccccc4oc3=O)cs2)CC1 (stereo unspecified) | -2.0 | 2
COc1cccc(-c2cc(=O)c3ccc(O)cc3o2)c1 | -3.0 | 1
Cc1cc(C)c2c(=O)n(CC(=O)Nc3ccc(Cl)cc3)sc2n1 | 9.4 | 7
CN(C)CCn1c2c(c(SCC(=O)Nc3ccccc3)nc1=O)CCCC2 | . | 6
Nc1nc2ccc(N3CCOCC3)cc2s1 | 1.1 | 1
CC1CN(c2ccc3nnc(-c4ccc(C(F)(F)F)cc4)n3n2)CC(C)O1 (stereo unspecified) | 0.9 | .
Cc1ccc(-c2cn3c(n2)sc2cc(C(=O)NC(C)C)ccc23)cc1 | . | 12
CC(=O)N(c1ccccc1)c1cccc(C(F)(F)F)c1 | . | -20
O=c1[nH]cc(C(F)(F)F)c(=O)[nH]1 | . | -14
Cc1[nH]c2ccccc2c(=O)c1CO | . | 7
CC(=O)N1N=C(c2cccc(C)c2)OC1c1ccccc1C (stereo unspecified) | . | 2
COc1ccc(CNC(=O)CC2(CC(=O)O)CCCCC2)cc1 | -1.9 | .
COc1ccc(-c2cnc3cc(C)nn3c2N)cc1 | -0.7 | .
O=C(O)C(Cc1ccccc1)NS(=O)(=O)c1ccccc1 (stereo unspecified) | . | 3
Cc1noc(C)c1COC(=O)c1ccccc1NC(=O)c1ccco1 | . | 5
c1cncc(Nc2nnc(-c3cccc4ccccc34)o2)c1 | -1.5 | .
CCOC(=O)CN1C(=O)/C(=C\c2ccc(OC)c(Br)c2)Sc2ccccc21 | 1.8 | 5
CCc1ccccc1NC(=O)C1COc2ccccc2O1 (stereo unspecified) | -1.5 | .
CCOC(=O)CNC(=O)c1cccnc1Oc1ccc(Cl)cc1 | 0.4 | .
Cc1nn(-c2ccccc2)c2sc(C(=O)O)cc12 | -0.2 | -15
SMILES | MgrA DNA FP | Sa helicase inh
S=C(N/N=C/c1ccccc1Cl)NC1CC2C=CC1C2 (stereo unspecified) | 0.1 | .
CC1=C(C(=O)OCc2ccc(C)cc2)C(c2cccc(Br)c2)NC(=O)N1 (stereo unspecified) | -2.2 | .
O=C(CCCn1nc(-c2ccccc2)c2cc(Cl)ccc21)NCCc1ccccc1 | 9.0 | 14
Cc1ccc(NC(=O)CN(C)C(=O)Cn2c(=O)oc3ccccc32)cc1 | . | -18
COC(=O)[C@@H]1CC(C)=C(C)C[C@H]1C(=O)OC | -1.1 | .
OCc1cc2c(cc1Br)OCO2 | 0.6 | .
Cc1c(C(=O)NCc2ccco2)oc2c1C(O)CC(C)(C)C2 (stereo unspecified) | 1.4 | -1
CC(=O)Nc1cc(Sc2ccc(Cl)cc2)c(F)cc1[N+](=O)[O-] | -2.0 | .
O=C(CSc1nnc2ccc3ccccc3n12)NCC1CCCO1 (stereo unspecified) | -1.1 | 3
CC(O)/C=C/c1ccc2ccccc2n1 (stereo unspecified) | 0.8 | 9
Cc1ccc(N2C(=O)CC(Nc3ccc(S(=O)(=O)N4CCCC4)cc3)C2=O)c(C)c1 (stereo unspecified) | . | 27
N#CCCS(=O)(=O)c1ccc(N)cc1 | -1.0 | 10
Cc1nn(C)c(C)c1Nc1n[nH]c(N)n1 | -1.7 | .
CC(C)C(C)(C#N)NC(=O)CSc1nc(N)cc(=O)[nH]1 (stereo unspecified) | . | -7
CCCCn1c(N)c(N(C(=O)c2ccc(N3CCCC3=O)cc2)C2CCCC2)c(=O)[nH]c1=O | . | -5
O=C(O)CCn1nc(-c2ccc(F)cc2)ccc1=O | -4.1 | .
O=C(/C(=C\c1cccs1)c1ccsc1)N1CCOCC1 | -0.3 | .
C/C(=N\N1C(=O)c2ccccc2NC12CCCCC2)c1ccccc1O | 1.0 | 3
OCC1OC(Nc2ccccc2)CC1O (stereo unspecified) | -1.2 | 13
Cc1cc(Oc2cc(C#N)c3ccccc3n2)ccc1Cl | -1.6 | -5
CCOC(=O)C1=C(NN(C)c2ccc(OC)cc2)CN(C(=O)c2ccccc2)C1 | -3.0 | 2
COc1ccc(COC(=O)C2=C(C)NC3=C(C(=O)CCC3)C2c2cc(OC)c(OC)c(OC)c2)cc1 (stereo unspecified) | 0.3 | .
O=C(CSc1ccccn1)Nc1ccccc1C(F)(F)F | -4.0 | -8
Cc1cc(Cl)c(S(=O)(=O)NCc2ccco2)cc1OCC(=O)NC1CCCCC1 | -0.4 | 13
O=C(CN(C(=O)CSc1nc2ccccc2o1)c1cccc(F)c1)NC1CCCCC1 | 1.4 | -21

Five entries already listed, arranged by number of heavy atoms, lowest first:
SMILES | MgrA DNA FP | Sa helicase inh
Cc1nn(C)c(C)c1Nc1n[nH]c(N)n1 | -1.7 | .
COc1cccc(-c2cc(=O)c3ccc(O)cc3o2)c1 | -3.0 | 1
CCc1ccccc1NC(=O)C1COc2ccccc2O1 (stereo unspecified) | -1.5 | .
CC(=O)Oc1ccc(N(C(C)=O)S(=O)(=O)c2ccc(Cl)cc2)cc1 | 1.1 | 3
CN(C)CCn1c2c(c(SCC(=O)Nc3ccccc3)nc1=O)CCCC2 | . | 6

The list continues.
SMILES | MgrA DNA FP | Sa helicase inh
CC(NC(=O)/C=C1\Sc2ccccc2NC1=O)c1ccccc1 (stereo unspecified) | 1.2 | -9
CCC1Oc2ccccc2N(Cc2ccccc2C)C1=O (stereo unspecified) | . | -25
CC(C)(C)C(=O)Nc1nnc(-c2ccc3c(c2)CCCC3)o1 | . | -6
Cc1ccccc1S(=O)c1ccccc1C(=O)O (stereo unspecified) | 1.7 | .
O=C(Nc1ccc2ccccc2c1)C1CC(=O)N(C2CCCCC2)C1 (stereo unspecified) | 3.7 | 0
COc1ccc(-c2nc3cc(C)ccc3o2)cc1 | -2.1 | -12
O=C(Nc1ccccc1-c1nc2ccccc2s1)c1cc([N+](=O)[O-])ccc1Cl | 2.8 | .
CCOC(=O)c1oc2cccc(O)c2c1CN(Cc1ccccc1)C(C)=O | . | -14
COC(=O)c1c(NC(C)=O)csc1C | -1.9 | .
COc1ccc(C(=O)Nc2ccc3nc(C)sc3c2)cc1 | -0.6 | .
Cc1cc(-c2onc(C)c2C(=O)Sc2c(Cl)cccc2Cl)no1 | -3.3 | .
Cc1nn(-c2ccccc2)c(C)c1P(=Nc1ccccc1C(=O)O)(N1CCOCC1)N1CCOCC1 | . | 12
O=C(O)CCNc1ccc(Cl)cn1 | 3.3 | 9
CCCCCc1nnc(NC(=O)c2cccc(S(=O)(=O)N3CCCC3)c2)s1 | . | 15
COc1ccc(C(=O)NCCCCN2CCN(c3ncccc3C(F)(F)F)CC2)cc1 | . | -24
Cc1nc2sc(C(=O)Nc3ccc(Br)cc3)c(N)c2c(C)c1C | 0.8 | .
N#Cc1cnn(-c2ccc(F)c(Cl)c2)c1N | . | 9
CCOC(=O)c1cnc2c(F)cc(F)cc2c1N1CCOCC1 | 4.3 | .
C=CCc1ccccc1OCC(O)Cn1c2ccccc2c2ccccc21 (stereo unspecified) | -3.6 | 13
CC1Oc2ccccc2C=C1/C=C(\C#N)c1nc2ccccc2c(=O)[nH]1 (stereo unspecified) | . | -19
COc1ccc(-c2cnc3/c(=C4\CCCN4C)c(=O)n(-c4ccccc4)n23)cc1 | . | 12
Cc1[nH]c(C)c(C(=O)O)c1CNC1CCCCC1C (stereo unspecified) | . | 13
Cc1cc(N2CCCCC2)nc2ccc(NC(=O)CCC(=O)NCc3ccco3)cc12 | . | 5
O=[N+]([O-])c1ccc(-c2nc(-c3ccccc3)c3cc([N+](=O)[O-])ccc3n2)cc1 | -2.5 | .
NC(=O)Cn1cc(C(=O)c2ccco2)c2ccccc21 | . | 5
SMILES | MgrA DNA FP | Sa helicase inh
CCOc1ccc(/C=C2\SC(=S)N(CC(=O)N3CCCc4ccccc43)C2=O)cc1 | . | 0
OCCSCCc1ccncc1 | 0.4 | 10
CC(C)N(C(=S)NCc1ccccc1)C(C)C | -12 | 11
CC(C)(Oc1ccc(Cl)cc1)C(=O)N1CCCCC1 | -2.9 | 16
Cc1nn2c(=O)cc(COc3cccc(NC(=O)c4cccs4)c3)nc2s1 | . | 14
O=C(CN1C(=O)S/C(=C\c2ccco2)C1=O)Nc1ccc(O)c(C(=O)O)c1 | . | -3
Cc1cc(=O)[nH]c2ccccc12 | . | 10
NC(=O)c1cccc(CS(=O)(=O)c2ccc(Cl)cc2)c1 | 1.8 | .
CCSc1nnc(NC(=O)c2ccc(OC)cc2OC)s1 | . | 2
Cc1cc(-c2nnc(SCC(N)=O)n2CC2CCCO2)cs1 (stereo unspecified) | 1.9 | -21
CCOc1ccc(N/C=C/C(=O)c2ccco2)cc1 | 2.0 | -11
O=C1CSCC(=O)N1c1csc(C(F)(F)F)c1-c1ccccc1 | . | 1
O=c1c2cnn(-c3ccccc3)c2ncn1Cc1cccnc1 | . | -3
COc1cccc(C2/C(=C(/O)c3ccc(Cl)cc3)C(=O)C(=O)N2c2ccc(OCC(=O)O)cc2)c1 (stereo unspecified) | -2.1 | 18
COc1cc(/C=C2/C(=N)N3C=CSC3=NC2=O)cc(OC)c1OCCOc1ccc(C)c(C)c1 | 3.5 | -8
O=C(CCN1C(=O)c2ccccc2Sc2ncccc21)NCCc1ccc(Cl)cc1 | -1.0 | 5
CN(Cc1nccn1C)C(=O)c1ccc2c(c1)S(=O)(=O)c1ccccc1C2=O | . | -7
Cc1cc(C)n(C(=O)c2ccc(Cl)cc2)n1 | -0.4 | 2
CCOC(=O)c1csc(NC(=O)/C=C/c2cccs2)n1 | . | -1
COc1cccc(/C=N/NC(=O)Cc2cccs2)c1 | . | -2
COc1ccccc1NC1CC(C)N(C(=O)c2ccc(C)cc2)c2c(C)cccc21 (stereo unspecified) | 0.1 | .

Some of the entries so far, with values under each structure:
Fields: MgrA DNA FP	Sa helicase inh
O=c1c2cnn(-c3ccccc3)c2ncn1Cc1cccnc1
  .	-3
Cc1cc(-c2nnc(SCC(N)=O)n2CC2CCCO2)cs1 (stereo unspecified)
  1.9	-21

From PubChem
